TRPML1 ag = human mucolipin-1 channel agonism; TRPML1-expressing cells, Ca2+ dye fluorescence, FDSS; host cell line not named in the record; reference of the full effect not given here; AID 624414; activation, % (concentration not given with the values); Q9GZU1; actives 0.12% (n = 410,000); in the data active = activation above about 50%; inconclusive = about 30% to 50%; inactive = below about 30%; further: 0% is about no effect; the text of the record puts the active cut at 80%
Target sequence (Q9GZU1 whole entry, looked up): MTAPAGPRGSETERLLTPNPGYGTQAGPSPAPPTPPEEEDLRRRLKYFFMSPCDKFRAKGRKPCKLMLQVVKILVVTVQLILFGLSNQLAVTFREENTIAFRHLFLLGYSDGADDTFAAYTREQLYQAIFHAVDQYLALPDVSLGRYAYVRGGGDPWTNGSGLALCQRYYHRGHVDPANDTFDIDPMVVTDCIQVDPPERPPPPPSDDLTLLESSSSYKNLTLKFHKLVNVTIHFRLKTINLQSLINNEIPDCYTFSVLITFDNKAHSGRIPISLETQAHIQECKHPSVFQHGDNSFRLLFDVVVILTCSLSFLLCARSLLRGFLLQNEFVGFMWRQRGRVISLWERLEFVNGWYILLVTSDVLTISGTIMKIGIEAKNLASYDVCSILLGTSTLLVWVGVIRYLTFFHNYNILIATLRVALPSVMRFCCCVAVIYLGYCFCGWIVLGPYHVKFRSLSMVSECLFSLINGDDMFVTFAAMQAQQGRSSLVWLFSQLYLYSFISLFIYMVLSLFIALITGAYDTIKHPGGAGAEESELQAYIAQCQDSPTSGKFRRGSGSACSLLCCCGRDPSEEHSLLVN
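Agonist activity was taken from a 110 s kinetic Ca2+ dye read on the FDSS after pinning compounds onto TRPML1-DL cells. The cells were seeded at 1,500/well with Tet inducer, incubated about 16 h, then dye-loaded at room temperature.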
D2 agonist = activates the human D2 dopamine receptor; P14416; DiscoveRx PathHunter D2 beta-arrestin, luminescence, 90 min; 100% = 57 uM dopamine signal; activation, % (no concentration beside the values); actives 0.084% (n = 360,000); AID 624465; in the data active = activation above about 40%; inconclusive = about 15% to 40%; inactive = below about 15%; further: compound concentration not given in the record; the text of the record calls up to 30% inactive
Target sequence (P14416 whole entry, looked up): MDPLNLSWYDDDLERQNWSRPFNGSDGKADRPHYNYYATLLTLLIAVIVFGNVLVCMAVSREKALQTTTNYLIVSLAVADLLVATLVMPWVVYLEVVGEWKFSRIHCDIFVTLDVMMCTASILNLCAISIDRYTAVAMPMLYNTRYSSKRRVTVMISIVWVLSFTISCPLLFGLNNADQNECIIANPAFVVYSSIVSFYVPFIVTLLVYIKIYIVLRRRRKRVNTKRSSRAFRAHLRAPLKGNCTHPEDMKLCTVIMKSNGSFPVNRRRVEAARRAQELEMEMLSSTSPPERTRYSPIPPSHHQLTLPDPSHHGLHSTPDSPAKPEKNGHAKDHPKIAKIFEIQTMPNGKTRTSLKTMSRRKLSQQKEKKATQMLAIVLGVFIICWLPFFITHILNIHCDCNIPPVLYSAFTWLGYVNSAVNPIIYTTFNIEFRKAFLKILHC
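DiscoveRx PathHunter D2 beta-arrestin cells (2,100/well) attached overnight, then compound-stimulated 90 min at 37 C in HBSS/10 mM HEPES/0.1% Tween-20 buffer; beta-galactosidase complementation read by luminescence after 1 h at ambient temperature. Dopamine 57 uM final (EC100) as control.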
PINK1 expr mod = modulators of PINK1 expression | PINK1 immunofluorescence, high-content cytometry, 24 h | Potency, µM (series often up to 76.6 µM), inactives show at the highest dose activation (PINK1 increase), usual class: activators | actives 0.2% (n = 410,000); active = well fitted activation curve with a large enough effect; inconclusive = small, poorly fitted or top-dose-only effect; inactive = flat fitted curve, though single readings scatter; cell line not stated here;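 further: potency means the concentration at half of the fitted maximal effect; % of control where 0% means no effect; nearly all actives have a fitted effect of over 65% in size; a mitochondrial uncoupler was the plate control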
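A stable cell line was treated with compounds at 5 concentrations for 24 hours, with CCCP as control. PINK1 levels and mitochondrial localization were measured by immunofluorescence with mitochondrial, cell and nuclear markers after fixation, read by laser-scanning cytometry.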
TRPML1 inh = blocks the human TRPML1 channel; Q9GZU1; actives 0.02% (n = 390,000); AID 624415; activity change, negative = inhibition, % (test concentration not listed); TRPML1-inducible cells, Ca2+ dye fluorescence, FDSS; hits give low values; inhibition of EC80 agonist-evoked calcium signal; in the data active means activity change below about -50%; inconclusive means about -30% to -50%; inactive means above about -30%;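 further: stimulus is agonist 54-4 at its EC80 concentration; on the % scale 0 is the no-effect control and ±100 the full control effect; compound concentration not given in the record; the text of the record puts the active cut at -80%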
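TRPML1-DL cells, Tet-induced overnight (~16 h, 37 °C) at 1,500 cells/well, were loaded with Ca8 no-wash dye plus quencher for 45-90 min at room temperature. Compounds were pinned during FDSS kinetic reading; agonist 54-4 at EC80 (4 uM final) then added.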
CtBP-E1A inh = CtBP/E1A binding inhibition. AlphaScreen GST-E1A/His-CtBP binding, 1536-well; hits give low values; control for the full effect not named in the record. activity change, % (test concentration not listed). actives 0.49% (n = 340,000). AID 651724; in the data active means activity change below about -65%; inconclusive means about -30% to -65%; inactive means above about -30%; further: on the % scale 0 is the no-effect control and ±100 the full control effect; compound concentration not given in the record
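AlphaScreen with 125 nM GST-E1A and 125 nM His-CtBP (5X stocks) in Tris pH 8.0, 300 mM NaCl, BSA, Tween 20, TCEP. Compounds preincubated 2 h at 37 deg C, then glutathione donor/nickel acceptor beads added for 1 h at 37 deg C in dark.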
Six1-Eya2 blk = blocks human Six1 binding to Eya2 | AlphaScreen GST-Six1/His-Eya2 binding, biochemical; hits give low values; control for the full effect not named in the record | actives 0.56% (n = 360,000) | activity change, % (concentration not given with the values); in the data active = activity change below about -65%; inconclusive = about -30% to -65%; inactive = above about -30%; further: on the % scale 0 is the no-effect control and ±100 the full control effect
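Homogeneous AlphaScreen proximity assay pairing GST-Six1 with His-tagged Eya2 (added as 5X mix: 250 nM and 500 nM) in 50 mM Tris pH 8.0, 300 mM NaCl, 1 mM TCEP. Glutathione donor and nickel acceptor beads; 1 h, 37 °C, dark.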
Starred values were filed as active, the others as inactive; ? = inconclusive; . = no result given; & = joins results of further samples; [ ] = another dose, or the depositor's remark.

SMILES	TRPML1 ag	D2 agonist	PINK1 expr mod	TRPML1 inh	CtBP-E1A inh	Six1-Eya2 blk
COc1cc(OC)c(NC(=O)c2cnc(N3CCCC3)nc2C)cc1Cl	3.4	.	2.3%	-4.9	.	.
CCOc1ccc(OCC)c(NC(=O)CN(C)S(=O)(=O)c2cnc[nH]2)c1	-0.7	0.1	2.7%	-9.9	8.8	-1.5
O=C(Nc1cc(C(F)(F)F)ccc1-n1cncn1)c1ccc(-c2ccccc2)cc1	3.2	2.2	11.5%	49.0	5.7	0.4
CC(NC(=O)/C=C/c1ccccc1)c1ccccc1 (stereo not given)	-0.8	-2.0	-0.5%	-14.7	-15.1	21.5
COc1ccc(NC(=S)N2CCN(S(=O)(=O)c3ccc(C)cc3)CC2)cc1	-0.5	-1.9	0.2%	22.3	-4.7	-9.2
CCOC(=O)C1CCN(C(=O)c2cnn3c(C)cc(C)nc23)CC1	-0.6	-4.5	0.9%	2.3	7.6	1.5
CCOc1cc(C(=S)N2CCOCC2)ccc1OC(=O)/C=C/c1ccc(OC)c(OC)c1	2.0	4.0	2.8%	-23.1	-6.9	-11.3
CCOC(=O)C(C)CC(C)C(=O)N1CCOCCOCCN(C(=O)C(C)CC(C)C(=O)OCC)CCOCC1 (stereo not given)	2.1	-2.2	-0.8%	14.4	-0.1	2.2
COc1ccc(NC(=O)CN2CCN(S(=O)(=O)N(C)C)CC2)cc1	0.4	0.9	0.0%	10.0	-1.8	2.5
Cc1ccc(CNC(=O)CCc2c(C)nc3nc(C)nn3c2C)cc1	0.3	.	1.6%	-13.7	.	.
CCc1nc2ccccc2c(C(=O)Nc2cc(C)ccc2C)c1C	0.5	-1.0	0.3%	7.7	.	-1.3
Cc1ccc(S(=O)(=O)/N=C(/Nc2ccc([N+](=O)[O-])cc2[N+](=O)[O-])c2ccccc2)cc1	0.8	7.0	35.5µM*	-21.0	-16.2	-11.7
CN1CCN(Cc2cccc3ncccc23)CC1CCO (stereo not given)	0.3	-2.8	-0.3%	-2.9	-1.0	0.7
C=C(C)CSC1=C(C#N)C(c2ccsc2)CC(=O)N1 (stereo not given)	-0.6	-1.7	4.8%[38.3 µM]	4.2	6.0	4.9
CCc1ccc(Nc2nnc(-n3nc(C)cc3C)c3ccccc23)cc1	1.3	.	-0.3%	18.0	.	.
CCCCN(CC)CCCNC(=S)Nc1ccc2nc(N3CCN(C)CC3)cc(C)c2c1	-0.4	7.1	2.3%	1.3	-4.6	-1.2
CCn1c(CNC(=O)COc2ccc(C(C)C)cc2)nnc1SCC(=O)Nc1ccccc1F	1.3	6.8	.	-4.9	0.9	-0.5
Cc1ccc2[nH]c(=O)c3cc(C(=O)NCCN4CCN(C)CC4)sc3c2c1	0.1	-0.1	0.7%	6.1	3.0	-6.7
O=C(NCc1ccco1)c1cc2n(n1)C(C(F)(F)F)CC(c1ccc(Cl)c(Cl)c1)N2 (stereo not given)	0.7	-3.9	4.0%	57.6	-9.3	-2.5
O=C(COC(=O)c1ccc2ccccc2c1)NCc1ccccc1	-0.2	-0.5	1.1%	-16.9	10.3	22.4
COc1ccc(N2CCN(C(=O)c3cc(=O)c4cc(Cl)ccc4o3)CC2)cc1	-0.6	-4.1	-0.3%	-4.0	8.3	-5.2
Cc1n[nH]c2ccccc2c1=O	0.1	-1.3	-4.1%	-20.6	0.4	-2.9
Cn1c(N)c(C(=O)COC(=O)/C=C/c2ccc(Cl)c(Cl)c2)c(=O)n(C)c1=O	-0.5	-2.8	?	4.9	-28.1	-0.8
S=C(Nc1ccc(Br)cc1Cl)Nn1cnnc1	-0.2	1.8	0.7%	16.4	-17.4	-0.6
COc1ccc(CC(=O)Nc2ccc(C(N)=O)cc2)cc1	-0.7	-4.1	0.2%	-5.1	0.0	8.6

12 entries from above, sorted by molecular weight, smallest number first:
SMILES	TRPML1 ag	D2 agonist	PINK1 expr mod	TRPML1 inh	CtBP-E1A inh	Six1-Eya2 blk
CC(NC(=O)/C=C/c1ccccc1)c1ccccc1 (stereo not given)	-0.8	-2.0	-0.5%	-14.7	-15.1	21.5
COc1ccc(CC(=O)Nc2ccc(C(N)=O)cc2)cc1	-0.7	-4.1	0.2%	-5.1	0.0	8.6
CCc1nc2ccccc2c(C(=O)Nc2cc(C)ccc2C)c1C	0.5	-1.0	0.3%	7.7	.	-1.3
O=C(COC(=O)c1ccc2ccccc2c1)NCc1ccccc1	-0.2	-0.5	1.1%	-16.9	10.3	22.4
COc1ccc(NC(=O)CN2CCN(S(=O)(=O)N(C)C)CC2)cc1	0.4	0.9	0.0%	10.0	-1.8	2.5
CCOc1ccc(OCC)c(NC(=O)CN(C)S(=O)(=O)c2cnc[nH]2)c1	-0.7	0.1	2.7%	-9.9	8.8	-1.5
Cc1ccc2[nH]c(=O)c3cc(C(=O)NCCN4CCN(C)CC4)sc3c2c1	0.1	-0.1	0.7%	6.1	3.0	-6.7
COc1ccc(NC(=S)N2CCN(S(=O)(=O)c3ccc(C)cc3)CC2)cc1	-0.5	-1.9	0.2%	22.3	-4.7	-9.2
Cn1c(N)c(C(=O)COC(=O)/C=C/c2ccc(Cl)c(Cl)c2)c(=O)n(C)c1=O	-0.5	-2.8	?	4.9	-28.1	-0.8
CCCCN(CC)CCCNC(=S)Nc1ccc2nc(N3CCN(C)CC3)cc(C)c2c1	-0.4	7.1	2.3%	1.3	-4.6	-1.2
O=C(NCc1ccco1)c1cc2n(n1)C(C(F)(F)F)CC(c1ccc(Cl)c(Cl)c1)N2 (stereo not given)	0.7	-3.9	4.0%	57.6	-9.3	-2.5
CCOC(=O)C(C)CC(C)C(=O)N1CCOCCOCCN(C(=O)C(C)CC(C)C(=O)OCC)CCOCC1 (stereo not given)	2.1	-2.2	-0.8%	14.4	-0.1	2.2

The results go on.
SMILES	TRPML1 ag	D2 agonist	PINK1 expr mod	TRPML1 inh	CtBP-E1A inh	Six1-Eya2 blk
CC(C)n1cc(CN2CCC(Oc3ccc(C(=O)N4CCCC4)cc3)CC2)cn1	0.5	-4.6	-0.7%	7.7	6.5	0.5
COC(=O)[C@H]1C[C@@]2(O)CN(S(=O)(=O)c3ccc(C)cc3)C[C@@]2(OC(=O)NC2CC2)C[C@H]1C(=O)OC	-0.5	-8.1	0.3%	-5.7	0.0	-1.6
C=CCCC(=O)N1C[C@H]2CON(C)[C@H]2C[C@H]1c1cccc(Br)c1	2.7	-0.8	-1.2%	5.4	3.6	6.1
Cc1ccc(N2CC(C(=O)Nc3ccc(C)c(S(=O)(=O)N(C)C)c3)CC2=O)cc1 (stereo not given)	2.0	-1.3	1.6%	21.3	-0.8	-1.7
Cc1cccc(C)c1-n1ncc(C(=O)O)c1C1CCN(C(=O)OC(C)(C)C)CC1	1.0	.	1.3%	8.2	.	.
Cc1cc(C)c(S(=O)(=O)N2CCOC2CNC(=O)C(=O)NCCN(C)C)c(C)c1 (stereo not given)	0.2	-1.7	0.9%	-7.1	8.6	3.3
O=C(NC1CC2CCCC(C1)N2C(=O)NC1CCCCC1)c1ccccc1 (stereo not given)	0.8	-1.3	0.4%	17.5	6.1	7.0
CSc1ccccc1NC(=O)c1ccccc1	0.6	1.0	-1.0%	14.9	.	7.9
CCOC(=O)C1=C(O)CSC1=Nc1cccc2ccccc12	2.2	3.7	-0.1%	-5.5	21.1	-0.4
CC1CCCC(N2CCN(C(=O)c3ccccc3F)CC2)C1 (stereo not given)	0.6	0.1	-0.6%	-8.7	8.1	6.1
Fc1ccc(NCc2ccccc2-c2nnc(-c3ccccc3Cl)o2)cc1	-0.2	.	6.7%	-10.0	.	.
Cc1ccc(S(=O)(=O)N(C)c2ccc(OCC(=O)OCC(=O)N(CC#N)c3ccccc3)cc2)cc1	0.4	1.2	5.0%	6.5	-1.9	0.3
OCCN1CCN(c2nc3ccccc3nc2-c2ccccc2)CC1	-0.3	-3.4	-0.9%	10.6	.	5.7
Cc1ccc(C(=O)OCC(=O)c2c(N)n(C)c(=O)n(C)c2=O)cc1S(=O)(=O)N1CCOCC1	1.1	1.5	4.7%	13.3	-25.8	-20.6
Cc1cc(N/N=C/c2ccc(Cl)cc2Cl)nc(NCc2ccccc2)n1	0.5	1.3	16.3%	-19.0	-15.8	-0.9
CCCc1nnc(NC(=O)CSc2nnc3c4ccccc4n(CC)c3n2)s1	-0.3	.	-1.3%	10.7	.	.
O=C(NNC(=O)c1cccnc1)NC12CC3CC(CC(C3)C1)C2	-0.8	-3.7	0.1%	10.6	1.6	10.0
O=S(=O)(Nc1cccc2ccccc12)c1cccc2nonc12	0.7	-5.6	0.2%	-4.8	-2.7	2.0
CCOC(=O)C1(Cc2cccc(OC)c2)CCCN(S(=O)(=O)N(C)C)C1 (stereo not given)	-0.9	6.1	1.2%	-9.4	5.6	5.1
COc1cc(OC)c(OC)cc1CN(C)C(c1ccccc1)c1nnnn1-c1ccccc1C (stereo not given)	3.9	-1.9	-0.8%	6.1	?	?
O=C(O)c1cccc(CSc2nc(-c3ccccc3)cc(C(F)(F)F)n2)c1	-0.6	-4.8	0.7%	6.6	4.5	-3.4
Cc1cc(C)n2nc(C(=O)OCC(=O)Nc3ccc4c(c3)OC(F)(F)O4)nc2n1	-0.7	1.0	0.5%	-14.1	6.7	5.7
CC(c1ccccc1)n1cc(C(=O)NCCCn2ccnc2)nn1 (stereo not given)	0.6	-1.3	0.6%	23.1	-1.5	-2.4
C=CCN(c1ccccc1)S(=O)(=O)c1ccc(Cl)c(C(=O)OCC(=O)c2[nH]c(C)c(C(C)=O)c2C)c1	0.0	-3.9	-0.5%	-11.2	-6.6	-0.9
CCCN(Cc1cccs1)C(=O)Nc1ccc(OCC)cc1	-0.9	.	-0.9%	58.3	.	.
O=C(Nc1cccnc1)c1cc(-c2cccc(Cl)c2)on1	-1.2&-0.7	-1.3	0.4%&2.0%	-13.7&-12.4	5.1	-0.5
CCn1cc(C(=O)O)c(=O)c2cc(F)c(N3CCN(C(=S)NC(=O)c4ccc(OC)cc4)CC3)cc21	4.3	2.8	?	9.1	.	1.5
CCOC(=O)C1=C(C)OC(N)=C(C#N)C1c1ccoc1 (stereo not given)	-1.3	0.3	0.2%	13.5	-10.9	4.3
Cc1ccccc1CC(=O)N1CCOCC1	0.5	-1.2	0.0%	5.0	7.1	4.0
O=C(NC1CCN(Cc2ccccc2)CC1)C1CCN(S(=O)(=O)c2cccc([N+](=O)[O-])c2)CC1	-0.6	-7.7	-0.1%	-9.2	1.0	1.5
